RECQ1 helicase = qHTS Assay for Inhibitors of RecQ-Like Dna Helicase 1 (RECQ1) | RECQ1 DNA unwinding, red fluorescence kinetic read | Potency, µM (doses to about 57.3 µM), for the others: at the top dose activity, negative = inhibition, most hits filed as inhibitors | 240,000 compounds, 0.54% hits | AID 2549, 2010; active = well fitted inhibition curve with a large enough effect; inconclusive = small, poorly fitted or top-dose-only effect;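 also: plate controls were vehicle for no effect and no enzyme for full effect; nearly all actives have a fitted effect of over 30% in size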
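RECQ1T1 50 nM; forked duplex (20 bp + 30-nt ss tails) 200 nM, ATP 2 mM final; pH 8.0, 2 mM MgCl2, 2.5 ug/ml poly(dI-dC); 15 min compound preincubation; discontinuous kinetic read over 2 h at RT.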
JMJD2E inh = qHTS Assay for Inhibitors of Human Jumonji Domain Containing 2E (JMJD2E); Lysine-specific demethylase 4E (Homo sapiens), B2RXH2; JMJD2E catalytic domain, FDH-coupled NADH fluorescence (FDH is formaldehyde dehydrogenase); Potency, µM (series often up to 57.1 µM), for inactives: at the highest dose activity change, negative = inhibition, most hits filed as inhibitors; 230,000 compounds, 1.6% hits; AID 2147, 2009; active = well fitted inhibition curve with a large enough effect, not every such curve was filed as active; inconclusive = small, poorly fitted or top-dose-only effect, or another doubt; inactive = no such curve, though single readings can be large or run the other way;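 also: 0% = wells with enzyme and -100% = buffer wells without enzyme; nearly all actives have a fitted effect of over 50% in size; many of its hits are not listed in these tables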
* = called active by the depositor; ? = inconclusive; . = not tested or not shown; & = joins results of further samples; [ ] = remark or other dose. Potency is read from the fitted curve at half-maximal effect.

1) NCCN
2) COC(=O)Nc1sc(C)nc1-c1ccccc1
3) NC(CO)(CO)CO
4) O=C(O)CCC(=O)O
5) Nc1c2c(nc3ccccc13)CCCC2

| Assay by compound | 1 | 2 | 3 | 4 | 5 |
| --- | --- | --- | --- | --- | --- |
| RECQ1 helicase | 6% | -3% | -10% | 1% | 37%[activator] |
| JMJD2E inh | . | -7% | . | . | ? |

Down the list, from the results shown.
Nos. 1–5 in RECQ1 helicase: 6%, -3%, -10%, 1%, 37%[activator]

Continued:
6) CN1CCC[C@@H]1c1cccnc1
7) C[N+](C)(C)CCO
8) CN1[C@H]2CC(OC(=O)[C@@H](CO)c3ccccc3)C[C@H]1[C@H]1O[C@H]12 (stereo not given in full)
9) CCCc1cc(=O)[nH]c(=S)[nH]1
10) COc1cc(Cc2cnc(N)nc2N)cc(OC)c1OC

| Assay by compound | 6 | 7 | 8 | 9 | 10 |
| --- | --- | --- | --- | --- | --- |
| RECQ1 helicase | -4% | -11%&16% | -5%[25.9 µM] | -2% | -15% |
| JMJD2E inh | . | -3%&2% | 0%[25.5 µM] | 9% | 10% |

Grouped by structure, the entries above with nitrogen in an aromatic ring.
2) COC(=O)Nc1sc(C)nc1-c1ccccc1
5) Nc1c2c(nc3ccccc13)CCCC2
6) CN1CCC[C@@H]1c1cccnc1
9) CCCc1cc(=O)[nH]c(=S)[nH]1
10) COc1cc(Cc2cnc(N)nc2N)cc(OC)c1OC

| Assay by compound | 2 | 5 | 6 | 9 | 10 |
| --- | --- | --- | --- | --- | --- |
| RECQ1 helicase | -3% | 37%[activator] | -4% | -2% | -15% |
| JMJD2E inh | -7% | ? | . | 9% | 10% |

An excerpt; most or all hits stand in other tables.
